Screening data deposited in PubChem by several laboratories.
GALR2 agonist: activates the human galanin receptor 2; actives 0.48% (n = 140,000); GALR2-expressing cells, agonist activation read-out; AID 803; O43603; activation, %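 (tested at 5 µM)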;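 active = above mean plus 3 SD of all compounds, about 5% in these data, not always enough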;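 note: 0% = vehicle buffer wells and 100% = reference agonist at full effect; tested in CHO reporter cells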
HSV augment: increases HSV replication in cells | HSV replication augmentation in cells, fold increase | maximum fold increase | actives 0.005% (n = 220,000) | AID 1956;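 active = peak rise of 1.5-fold or more in the series; inconclusive = self-fluorescent or not available for retest; tested in PC3 cells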;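 note: first round at 10 µM; read as green reporter fluorescence; hits show the peak of a series up to 25 µM; 1 = signal of infected wells without compound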
PKD1 kinase inh: inhibitors of human PKD1 kinase. PKD1 kinase fluorescence polarization assay. inhibition, %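 (about 10 µM by stock and volumes)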. actives 0.056% (n = 200,000). Q15139;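 active = inhibition of 50% or more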;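 note: controls were vehicle for no effect and a reference inhibitor for full effect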
Target sequence (Q15139 whole entry, looked up): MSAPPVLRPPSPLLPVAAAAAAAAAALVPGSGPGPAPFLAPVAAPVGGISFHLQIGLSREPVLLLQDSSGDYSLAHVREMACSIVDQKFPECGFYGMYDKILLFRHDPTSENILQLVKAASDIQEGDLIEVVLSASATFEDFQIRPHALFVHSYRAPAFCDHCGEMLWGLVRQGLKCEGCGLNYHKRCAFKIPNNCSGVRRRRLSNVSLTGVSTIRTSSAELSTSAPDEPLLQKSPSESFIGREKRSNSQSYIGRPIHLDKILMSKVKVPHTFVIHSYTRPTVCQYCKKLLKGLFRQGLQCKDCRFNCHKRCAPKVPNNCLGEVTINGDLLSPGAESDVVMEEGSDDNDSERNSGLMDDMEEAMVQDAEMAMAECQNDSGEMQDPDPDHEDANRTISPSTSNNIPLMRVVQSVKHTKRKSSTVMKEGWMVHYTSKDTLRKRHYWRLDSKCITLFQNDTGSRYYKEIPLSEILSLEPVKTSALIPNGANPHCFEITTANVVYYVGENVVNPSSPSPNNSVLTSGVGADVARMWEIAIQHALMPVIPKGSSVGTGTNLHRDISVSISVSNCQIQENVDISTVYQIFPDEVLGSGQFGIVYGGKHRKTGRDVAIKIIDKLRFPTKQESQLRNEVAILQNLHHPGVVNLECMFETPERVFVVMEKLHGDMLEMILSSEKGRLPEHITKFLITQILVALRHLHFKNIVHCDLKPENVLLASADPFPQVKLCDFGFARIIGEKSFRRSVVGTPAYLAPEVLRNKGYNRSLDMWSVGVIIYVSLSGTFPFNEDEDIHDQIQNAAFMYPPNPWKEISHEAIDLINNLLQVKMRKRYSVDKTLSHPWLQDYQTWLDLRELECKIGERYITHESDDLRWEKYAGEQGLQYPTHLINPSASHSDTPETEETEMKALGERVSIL
INS promoter inh: TRM-6 insulin promoter activity inhibition; TRM-6 cells (human fetal islet line), insulin promoter-eGFP reporter, imaging; reporter expression induced with tamoxifen; inhibition, % at 2 µM; actives 0.9% (n = 130,000); AID 1273;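 active = inhibition above the mean plus 3 SD, with well images judged a real hit on visual review, cut at about 60% in these data, passing the limit was not always enough; inconclusive = inhibition over the cutoff but images rejected on review; inactive = inhibition not above the cutoff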
RGS16-Gao HTS: regulators of human RGS16-Galphao interaction | bead-based flow cytometry RGS16-Galphao binding, fluorescence; actives lie on both sides | binding response (% of control), % at 10 µM | actives 0.38% (n = 220,000) | AID 1441 | O15492+P09471;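 active = below 25% or above 175%, edge rows of some plates excepted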;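 note: Galphao activated by GDP with aluminum fluoride before binding; 100% = wells without compound and 0% = beads without RGS; some results beyond the cut were filed as inactive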
INS promoter inh cell count: further read-out of INS promoter inh, marked with its call; normalized cell count, %; measured here: cell count, toxicity; reference of the scale not given here;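 cells exposed to compound for 48 h; stained nuclei by imaging scaled within each plate; lower means fewer cells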
HSV augment primary fold: further read-out of HSV augment, marked with its call; fold increase; compound at 10 µM; measured here: primary screen fold increase 10 uM; tested in PC3 cells;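 GFP signal in the first replicate; 1 = infected wells without compound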
* hit, by the source's call; i = inactive; ? = inconclusive; . = no result given.

compound,INS promoter inh,HSV augment primary fold,GALR2 agonist,HSV augment,INS promoter inh cell count,RGS16-Gao HTS,PKD1 kinase inh
CC1(C)NC(=O)N(CCOCCOc2cccc(Oc3ccccc3)c2)C1=O,-187,0.89,0.1,i,104,79,-3
COc1ccc(OCCOCCN2CCOCC2)cc1,29,1.3,-2.7,i,86,139,-1
Nc1nonc1C(=O)NCCN=Cc1ccccc1O,-26,0.94,-0.9,i,74,105,-10
c1cncc(-c2nnc3n2C2(CCCCC2)Cc2ccccc2-3)c1,.,0.81,-0.5,i,.,108,0
N#C/C(=C\c1ccc(-c2ccc(C(=O)O)cc2)o1)c1nc2ccccc2[nH]1,.,.,.,?,.,98,-9
Clc1ccc2[nH]c3c(c2c1)CCc1cn[nH]c1-3,-22,1.1,-0.8,i,163,106,-2
Cc1nnc(NC(=O)CSc2nc3[nH]ncc3c(=O)[nH]2)s1,-29,0.99,.,i,129,105,-1
CCOC(=O)C1=C(C)N=c2s/c(=C\c3ccncc3)c(=O)n2C1c1ccc2c(c1)OCO2 (stereo unspecified),0,0.93,-0.1,i,106,102,-3
CCOc1ccccc1C(=O)NC(C(=O)Nc1cccnc1)C(C)C (stereo unspecified),.,0.99,.,i,.,95,2
Cn1cc(C(=O)Nc2ccc(Cl)cc2)c(C(F)(F)F)n1,.,0.99,.,i,.,97,-6
CCOC(=O)C(C)N1N=C(/C=C/c2ccc(OC)cc2)CCC1=O (stereo unspecified),35,0.9,-2.1,i,111,100,7
COc1cccc(N(C(=O)Cn2nnc(-c3ccc(C)cc3)n2)C(C(=O)NC(C)(C)C)c2c[nH]c3ccccc23)c1 (stereo unspecified),-30,0.97,-2.0,i,70,101,7
COc1ccc(S(=O)(=O)N2CCC(C(=O)NCc3ccco3)CC2)cc1,72,0.99,-1.2,i,105,15,-1
CCN(CC)S(=O)(=O)c1ccc2oc(C(=O)N3CCOCC3)c(C)c2c1,11,0.82,0.3,i,131,99,0
O=C(CCCn1c(=S)[nH]c2ccccc2c1=O)N1CCN(c2cccc(Cl)c2)CC1,-8,0.86,0.0,i,126,101,-2
c1ccc(-c2n[nH]c3c2CCC3)cc1,-7,1,-0.5,i,99,92,4
O=S(=O)(NCCNc1nccc(C(F)(F)F)n1)c1ccccc1,.,0.9,.,i,.,99,.
CC(C)CN(C(=O)COC(=O)c1ccc2ccccc2n1)C1CCS(=O)(=O)C1 (stereo unspecified),-15,1,.,i,68,111,-4
c1ncn(C23CC4CC(CC(C4)C2)C3)n1,6,0.96,0.6,i,120,115,1
CN(C)c1ccnc(Nc2ccccc2)c1C#N,.,0.93,.,i,.,99,1
O=C(CN1CCOCC1)Nc1ccc(C2CCCCC2)cc1,.,0.97,-0.1,i,.,98,-22
Cc1cc2c(cc1C)[n+](C)cn2CC(O)COCc1ccccc1 (stereo unspecified),0,0.72,-4.4,i,137,105,-3
CCOC(=O)C1CCN(C(=O)c2ccc3snnc3c2)CC1,-290,0.8,-3.7,i,56,.,6
COc1ccc2[nH]cc(CCNC(=O)c3ccc([N+](=O)[O-])cc3)c2c1,.,0.96,.,i,.,101,-3
O=C1CC(c2ccco2)CC(O)=C1C=Nc1cc(Cl)ccc1Cl (stereo unspecified),57,0.79,-1.1,i,98,82,-3
CN(C)/C=C/C(=C\C(=O)C(F)(F)F)Nc1ccc(C(F)(F)F)cc1,.,0.94,.,i,.,92,-5
Cc1ccc(C(=O)Nc2ncnc3sc4c(c23)CCCCC4)cc1,18,1,-1.4,i,56,100,15
S=C(Nc1cccnc1)N1CCCCC1,.,1,.,i,.,102,-9
C/C(=N\Nc1nc2ccccc2[nH]1)c1ccc2c(c1)OCO2,.,0.68,.,i,.,100,4
CCOC(=O)c1c(NC(=O)C2CCCO2)sc(C)c1C (stereo unspecified),.,1,.,i,.,98,-5

The last 6 records of the part above open the next one:
compound,INS promoter inh,HSV augment primary fold,GALR2 agonist,HSV augment,INS promoter inh cell count,RGS16-Gao HTS,PKD1 kinase inh
O=C1CC(c2ccco2)CC(O)=C1C=Nc1cc(Cl)ccc1Cl (stereo unspecified),57,0.79,-1.1,i,98,82,-3
CN(C)/C=C/C(=C\C(=O)C(F)(F)F)Nc1ccc(C(F)(F)F)cc1,.,0.94,.,i,.,92,-5
Cc1ccc(C(=O)Nc2ncnc3sc4c(c23)CCCCC4)cc1,18,1,-1.4,i,56,100,15
S=C(Nc1cccnc1)N1CCCCC1,.,1,.,i,.,102,-9
C/C(=N\Nc1nc2ccccc2[nH]1)c1ccc2c(c1)OCO2,.,0.68,.,i,.,100,4
CCOC(=O)c1c(NC(=O)C2CCCO2)sc(C)c1C (stereo unspecified),.,1,.,i,.,98,-5
CC(C)Oc1ccc(C(CC(=O)NCc2ccco2)c2ccccc2)cc1 (stereo unspecified),29,0.84,0.0,i,125,121,-13
Cc1cccc(C(=O)Nc2ccc(CC(=O)O)cc2)c1,-226,1.2,-1.7,i,56,104,-1
COC(=O)C1CC(O)CN1C(=O)NC1CCCCC1 (stereo unspecified),0,0.95,.,i,116,83,-5
COCCCNC(=O)c1oc2ccc(S(=O)(=O)N(C)C3CCCCC3)cc2c1C,29,0.85,-0.2,i,97,99,6
COc1ccc(CCNC(=O)COC(=O)/C=C/c2cccs2)cc1,0,0.89,.,i,86,90,-2
CCn1cc(Br)c(C(=O)Nc2cccc(SC)c2)n1,-7,0.97,-1.2,i,63,96,1
CN1CC(=O)N(C)c2nc(Br)n(C)c2C1=O,7,0.9,-3.3,i,215,102,5
COc1ccc(CN=C2NN=C(c3ccccc3)CS2)cc1,-258,0.98,.,i,33,106,-6
O=C(NC(C(=O)N/N=C/c1c2ccccc2cc2ccccc12)c1n[nH]c(=O)c2ccccc12)c1ccccc1 (stereo unspecified),-27,.,1.5,.,90,107,-5
N#Cc1ccc(NC(=O)COC(=O)CCc2ccc(S(=O)(=O)N3CCCCC3)cc2)cc1,3,0.88,-0.8,i,98,100,6
CCOc1cc(/C=N/NC(N)=O)ccc1OC(=O)c1ccc(C)cc1,11,.,-4.0,.,95,103,-5
CCOC(=O)c1[nH]c(=O)[nH]c1CSc1nc(C)cc(C)n1,-31,1,-0.7,i,25,99,-10
CCOc1cc(/C=N/NC(=O)c2cccnc2)ccc1OC(=O)c1ccco1,.,0.97,.,i,.,92,0
O=c1oc2ccccc2c(Nc2ccc(O)cc2)c1[N+](=O)[O-],-47,1,-0.7,i,89,102,-4
Oc1ccc(O)c(Cc2nc3ccccc3[nH]2)c1,.,.,.,?,.,97,-5
Cc1ccc(S(=O)(=O)N/N=C\c2ccc(Cl)c([N+](=O)[O-])c2)cc1,38,0.81,-2.4,i,77,101,-5
Cc1c(NS(=O)(=O)c2ccc(S(=O)(=O)c3ccccc3)s2)c(=O)n(-c2ccccc2)n1C,.,1,.,i,.,101,.
CCOc1ccc(C(=O)NC(=S)Nc2ccc(NC(=O)C(C)C)cc2)cc1[N+](=O)[O-],14,0.82,0.6,i,120,101,-12
O=C(/C=C/c1cn(-c2ccccc2)nc1-c1cccnc1)c1ccco1,.,0.53,.,i,.,103,11
CC(C)(C)n1nnnc1CN1C2CCC1CC(NC(=O)Nc1ccccc1)C2 (stereo unspecified),.,0.91,-3.8,i,.,99,-8
O=C(O)c1cc(-c2ccccc2)n(-c2ccccc2C(=O)O)n1,50,1,-1.1,i,100,100,-1
COc1ccc(OC)c(NS(=O)(=O)c2ccc(SC)cc2)c1,59,0.83,-0.2,i,68,103,-11
Cc1ccc(-c2csc(NC(=O)C[n+]3cc(-c4ccc(C)cc4)n4c3CCC4)n2)cc1,.,0.79,.,i,.,107,.
CCCCCCCCCCCC(=O)N/N=C/c1ccco1,15,0.9,-2.0,i,80,104,-3
COCCNCC1C(Oc2ccc(Cl)cc2)C(=O)N1c1ccccc1C (stereo unspecified),-67,0.97,.,i,141,103,6
CCOc1ccc(CN2CCN(c3cc(C)nc4c5c(C)cc(C)nc5nn34)CC2)cc1,-37,0.87,0.1,i,48,100,-3
COc1ccc(-c2nc(CSCC(=O)N3CCN(c4cccc(C)c4)C(C)C3)c(C)o2)cc1OC (stereo unspecified),.,.,1.1,.,.,100,-3
COc1cc2c(cc1OC)C(C(=O)O)C(c1cc(Br)c(O)c(OC)c1)N(C)C2=O (stereo unspecified),.,0.87,-2.6,i,.,160,-4
Cc1nc2c(cnn2-c2ccccc2)c(=O)[nH]1,.,1.1,.,i,.,98,-1
CCc1ccc(C2C3=C(CC(C)(C)CC3=O)Nc3c2c(=O)[nH]c2nc(C)nn32)cc1 (stereo unspecified),.,0.79,0.7,i,.,98,-6
COc1ccc(-c2cc(C(F)(F)F)nc(NCc3cccs3)n2)cc1,3,0.96,0.0,i,122,31,3
CCc1c(C)c2ccc(OCC(N)=O)cc2oc1=O,0,0.62,-0.8,i,76,76,-5
Cc1[nH]nc2c1C(c1c[nH]c3ccccc13)C(C#N)=C(N)O2 (stereo unspecified),.,1.1,.,i,.,100,.
COc1ccc(N2C(=O)CN(Cc3ccc(OC)c(OC)c3)C2=S)cc1,-5,1.1,.,i,92,90,4
Cc1cccc(Nc2nnc(SCC3CCCCO3)s2)c1C (stereo unspecified),.,0.89,-0.1,i,.,33,-1
COC(=O)c1c(C)[nH]c(C)c1-c1ccccc1Cl,.,0.86,-1.7,i,.,115,-9
CCOc1ccc(N(C(C)C(=O)Nc2ccc(OC)cc2)S(C)(=O)=O)cc1 (stereo unspecified),11,0.8,-1.9,i,74,104,-5
CCCn1c(SCC(=O)Nc2c(CC)cccc2CC)nnc1C(C)C,.,1,-0.9,i,.,106,3
CCCCc1ccc(Nc2nc(CCC)cc(=O)[nH]2)cc1,4,0.8,0.1,i,96,106,-4
Cn1nc(C(F)(F)F)c(-c2ccccc2)c1NC(=O)CSCC(=O)O,.,1,.,i,.,98,.
COc1ccc(-c2nc(N3CCCC3)[nH]c(=O)c2C#N)cc1,0,0.78,-0.8,i,77,101,-2
O=C(COc1cccnc1[N+](=O)[O-])Nc1cccc(S(=O)(=O)N2CCCCC2)c1,.,1,-0.7,i,.,101,-3
COC(=O)C1CCN(c2ccc([N+](=O)[O-])cc2[N+](=O)[O-])CC1,.,1,.,i,.,92,7
Cc1ccc(NC(=O)CSC2=NCCN2)cc1,28,0.96,-2.3,i,43,115,-4
O=C(CCc1ccccc1)Nc1ccc(F)c([N+](=O)[O-])c1,0,0.94,.,i,118,114,-3
COc1cc(-c2nc(-c3cccnc3)no2)cc(OC)c1OC,42,.,-0.2,.,82,116,-5

Rows were taken by chance. About 1.1% of those tested had a hit in this group.
